HSD17B inhib: blocks hydroxysteroid 17-beta dehydrogenase activity. Q99714. recombinant HSD17B10, NADH fluorescence kinetic; many of its hits are not listed in these tables. Potency, µM (top dose mostly 57.1 µM), for inactives: top-dose activity change, negative = inhibition, actives largely listed as inhibitors. actives 7.6% (n = 75,000). AID 893; active means well fitted inhibition curve with a large enough effect; inconclusive means small, poorly fitted or top-dose-only effect; inactive means no such curve, though single readings can be large or run the other way;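 further: the protocol describes HADH2 (HSD17B10) and not the HSD17B4 of the title; nearly all actives have a fitted effect of over 70% in size; most hits overshoot -100% by far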
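Activity followed as NADH fluorescence increase (ex 360, em 450 nm) every 30 seconds for 4 min, using final 90 uM beta-hydroxybutyryl CoA and 1 mM NAD+. Recombinant His-tagged enzyme, 20 nM, pH 9.0 Tris buffer, 15 min compound preincubation.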
* marks the source's active call; other numbers are inactive results; ? = inconclusive; [ ] = remark or other dose. On the % scale 0 is the no-effect control and ±100 the full control effect; potency means the concentration at half of the fitted maximal effect. Some of the compounds tested (hit frequency here may not be typical).

SMILES | HSD17B inhib
Cc1cccn2c(=O)c3cc(C(=O)N4CCN(C(=O)c5ccco5)CC4)n(C)c3nc12 | 32µM*
COC(=O)c1ccc(C=O)cc1 | 7%
CCOC(=O)c1c(C)c(C(=O)Nc2ccc(N(C)C)cc2)c(C)n1CC | -8%
O=S1(=O)N=CN(Cc2cccc(F)c2)c2ccccc21 | -1%
O=C(Cn1c(=O)sc2ccccc21)Nc1ccc(S(=O)(=O)N2CCCC2)cc1 | -10%
CCOC(=O)c1sc2ncnc(NCC(c3cccs3)N(C)C)c2c1C (stereo not drawn) | -29%
CSc1ncc(Cl)c(C(=O)NCc2ccc3c(c2)OCO3)n1 | 2%
O=C(CSC1=NCCN1)NC12CC3CC(CC(C3)C1)C2 | 2%
O=C(NCC1CCCO1)c1nc2c(nnn2Cc2ccc(F)cc2)c(=O)[nH]1 (stereo not drawn) | -2%
O=c1cccc(-c2ccc(Br)cc2)o1 | -12%
CC(C)C[C@H](NC(=O)Nc1cccc(C(F)(F)F)c1)C(=O)O | -1%
COc1ccc2c(c1)c(C(=O)CN1CCN(C(=O)c3ccco3)CC1)c(C)n2C | -9%
CSC1CCCCC1(O)CSc1nc2ccccc2o1 (stereo not drawn) | -17%
O=S(=O)(c1ccc(NCCc2c[nH]c3ccccc23)nc1)N1CCOCC1 | 4%
Cc1noc(C)c1C(=O)Nc1ccc(Cl)cc1C(F)(F)F | 4%
CCOc1ccccc1OCCCCN1CCCC1 | 7%
COc1ccc(CCn2c(SCC(=O)Nc3cc(C)on3)nc3ccccc3c2=O)cc1OC | 6%
CCCCC(=O)Nc1cc2nn(-c3ccc(OC)cc3)nc2cc1C | 20%
O=C1C(=O)N(Cc2ccco2)C(c2cccc(Cl)c2)/C1=C(\O)c1ccc2c(c1)OCCO2 (stereo not drawn) | -16%
CC1(C)CC2C1CC[C@]1(C)CCC3C(C(=O)O)CC(=O)O[C@]32C1 (stereo partly drawn) | 10µM*
COc1nc(-c2ccccc2)ccc1-c1noc(C)n1 | 32µM*
COC(=O)c1cc2ccsc2n1CC(=O)Nc1cc(C)cc(C)c1 | -4%
OCC1OC(c2ccccc2)C=CC1Oc1ccc(C2CCCC2)cc1 (stereo not drawn) | -7%[11.4 µM]
Cc1ccccc1-n1c(SC/C(O)=C(\C#N)c2nc3ccccc3[nH]2)nnc1-c1ccncc1 | 32µM*
CCn1c2ccccc2c2cc(Nc3cc(C)nc4ncnn34)ccc21 | -17%

Next section.
SMILES | HSD17B inhib
O=C(CCC1(C(=O)O)CCC(=O)NC1)NCc1ccccc1 (stereo not drawn) | 10%
O=c1[nH]c(CN2CCN(c3ccccc3Cl)CC2)nc2ccsc12 | 5%
Cc1ccnc(NC(=O)CCC(=O)N(CC(=O)NC(C)(C)C)C2CCCC2)c1 | 3%
CCN1C(=O)CSc2ccc(C(=O)OC)cc21 | 5%
CCOc1cccc(-c2nnc(SCC(=O)Nc3cc(OC)cc(OC)c3)n2N)c1 | -1%
CCCCNc1nc(C)nc2c1nc(-c1ccccc1)n2C(C)CCCN(CC)CC (stereo not drawn) | 32µM*
O=C1CCCN1CCC1CCN(C2CC(=O)N(c3ccc(F)cc3)C2=O)CC1 (stereo not drawn) | -8%
COCCCNC(=O)Cn1cc(C(C)=O)c2ccccc21 | 5%
CCc1ccc(CCC(=O)Nc2nccs2)o1 | -8%
COC(=O)NC(c1cccc(C)c1)[C@@]1(C(=O)OC)CCCC1=O (stereo partly drawn) | 5%[11.4 µM]
CCc1ccc(-n2c(SCC(=O)Nc3cc(C)[nH]n3)nc3[nH]ncc3c2=O)cc1 | -2%
CCC(C)NC(=O)N[C@@H](CCSC)C(=O)O (stereo partly drawn) | 2%
COc1ccc(-c2nnc3sc(C4CCCCC4)nn23)cc1OC | -1%
O=C(NCCc1nc2ccccc2[nH]1)c1ccc(F)cc1 | 9%
COCCn1c(SCC(=O)OC(C)C)nnc1-c1ccccc1 | -1%
O=C(O)Cc1cccc2c(=O)cc(-c3ccccc3)oc12 | 1%[11.4 µM]
Cc1cccc(NC(=O)Cn2nnc(-c3ccc(CN4CCCC4)cc3)n2)c1C | 4%
COc1ccc(C(=O)CN2CCN(c3ccc(F)cc3)CC2)cc1OC | -23%
O=C(Nc1ccc2oc(-c3ccncc3)nc2c1)c1ccccc1F | 25µM*
CCCC1=C(C(=O)OCC)C(c2ccc(NC(C)=O)cc2)NC(=O)N1 (stereo not drawn) | 32µM*
CN(C)S(=O)(=O)c1ccc2c(c1)c(=O)c(C(=O)NCCCN1CCCCCC1)cn2C | ?
O=c1c(-c2cc(O)c(O)c(O)c2)coc2cc(O)c(O)c(O)c12 | ?
O=C(Nc1ccon1)c1csc2c1CCCC2 | -13%
CC1CN(C2CCCCC2)c2nc3c(c(=O)[nH]c(=O)n3C)n2C1 (stereo not drawn) | 8%
O=C(Nc1ccncc1)c1ccc2c(c1)OCCO2 | 5%

A draw from above in order of length of the SMILES, high to low.
SMILES | HSD17B inhib
CN(C)S(=O)(=O)c1ccc2c(c1)c(=O)c(C(=O)NCCCN1CCCCCC1)cn2C | ?
CCc1ccc(-n2c(SCC(=O)Nc3cc(C)[nH]n3)nc3[nH]ncc3c2=O)cc1 | -2%
Cc1ccnc(NC(=O)CCC(=O)N(CC(=O)NC(C)(C)C)C2CCCC2)c1 | 3%
CCOc1cccc(-c2nnc(SCC(=O)Nc3cc(OC)cc(OC)c3)n2N)c1 | -1%
Cc1cccc(NC(=O)Cn2nnc(-c3ccc(CN4CCCC4)cc3)n2)c1C | 4%
CCCCNc1nc(C)nc2c1nc(-c1ccccc1)n2C(C)CCCN(CC)CC (stereo not drawn) | 32µM*
O=c1c(-c2cc(O)c(O)c(O)c2)coc2cc(O)c(O)c(O)c12 | ?
COC(=O)NC(c1cccc(C)c1)[C@@]1(C(=O)OC)CCCC1=O (stereo partly drawn) | 5%[11.4 µM]
O=c1[nH]c(CN2CCN(c3ccccc3Cl)CC2)nc2ccsc12 | 5%
O=C(Nc1ccc2oc(-c3ccncc3)nc2c1)c1ccccc1F | 25µM*
COc1ccc(-c2nnc3sc(C4CCCCC4)nn23)cc1OC | -1%
O=C(O)Cc1cccc2c(=O)cc(-c3ccccc3)oc12 | 1%[11.4 µM]
O=C(NCCc1nc2ccccc2[nH]1)c1ccc(F)cc1 | 9%
COCCCNC(=O)Cn1cc(C(C)=O)c2ccccc21 | 5%
CCC(C)NC(=O)N[C@@H](CCSC)C(=O)O (stereo partly drawn) | 2%
O=C(Nc1ccncc1)c1ccc2c(c1)OCCO2 | 5%
CCN1C(=O)CSc2ccc(C(=O)OC)cc21 | 5%
CCc1ccc(CCC(=O)Nc2nccs2)o1 | -8%

Further results.
SMILES | HSD17B inhib
COc1cccc(NC(=O)CCCn2c(=O)[nH]c3ccccc3c2=O)c1 | ?
COc1ccc(-c2c(C)nn3c(N4CCC(C(=O)N5CCCCC5)CC4)cc(C)nc23)cc1OC | ?
COC(=O)c1sc(N)c(C(=O)OC)c1COC(=O)c1c(C)noc1C | -17%
CCOc1ccc(N(C(C)=O)C2C=CS(=O)(=O)C2)cc1 (stereo not drawn) | 6%
CCOC(=O)CNc1nc(C#N)nc(N2CCOCC2)n1 | 2%
CCCC[C@@H]1C[C@H]1C(NC(=O)c1cccnc1)c1ccc(-c2ccccc2)cc1 (stereo partly drawn) | 7%
CCc1sc(C(=O)Nc2ccsc2C(=O)OC)cc1Br | -11%
O=C(c1ccco1)N1CCC[C@@]2(CCN(c3ccccn3)C2)C1 | ?
COc1ccccc1OCCSc1nc2ccccc2c(=O)[nH]1 | -7%
COC(=O)NC(/C(C(=O)OC)=C(\C)NCc1ccccc1)c1cccc(F)c1 (stereo not drawn) | 2%[11.4 µM]
Cn1c(=O)oc2cc(S(=O)(=O)NCCC(=O)NCCc3ccc(Cl)cc3)ccc21 | 2%
N/C(CN1CCCC1=O)=N\O | 3%
O=C(Cn1c(C(=O)NCC2CCCO2)cc2sccc21)c1ccccc1 (stereo not drawn) | 6%
O=C(O)CCC(=O)c1ccc2ccc3cccc4ccc1c2c34 | 3.2µM*
Cc1ccc(-c2nc3c(=O)n(C)c4ccccc4c3o2)cc1 | 6.3µM*
Cc1cc(C)c(NC(=O)CS(=O)CC(=O)N2CCN(c3ccc(F)cc3)CC2)c(C)c1 (stereo not drawn) | -1%
CO/N=C(/C(=O)N[C@H]1C(=O)N2C(C(=O)O)=C(COC(C)=O)CSC12)c1csc(N)n1 (stereo partly drawn) | -3%
COc1ccccc1NC(=O)Nc1ncccc1C | -1%
COc1ccc(N(CC(=O)Nc2ccc3c(c2)OCO3)S(=O)(=O)c2ccccc2)c(OC)c1 | 7%
CCNS(=O)(=O)c1cc(Br)ccc1OC | 4%
CCCCOc1ccccc1Cn1c(=O)oc2ccccc21 | -17%
CCOc1cc2c(cc1OCC)C(C(=O)O)C(c1cc(OC)c(OC)c(OC)c1)N(C)C2=O (stereo not drawn) | -1%
CCCCN(C(=O)NC(=O)Nc1ccccc1C)S(C)(=O)=O | 5%
C=CCN(C(=O)CNC(=O)c1ccco1)C(C(=O)NC1CCCCC1)c1ccccc1F (stereo not drawn) | 1%
O=C(COC(=O)C1COc2ccccc2O1)NC(=O)Nc1ccc2c(c1)OCCO2 (stereo not drawn) | 14%

Structural class, the compounds so far with a cyano group
SMILES | HSD17B inhib
Cc1ccccc1-n1c(SC/C(O)=C(\C#N)c2nc3ccccc3[nH]2)nnc1-c1ccncc1 | 32µM*
CCOC(=O)CNc1nc(C#N)nc(N2CCOCC2)n1 | 2%

New compounds follow.
SMILES | HSD17B inhib
CC1(C(=O)NCc2cccnc2)CCC(=O)N1Cc1cccs1 (stereo not drawn) | 6%
N#Cc1ccc2ccn(CC(=O)N3CCCc4ccccc43)c2c1 | ?
Cc1[nH]c2ccc(Br)cc2c(=O)c1CN1CCOCC1 | 2%
O=C(O)Cn1nnnc1-c1ccc(F)cc1 | 14%
N=c1c2c(-c3ccccc3)c(-c3ccccc3)n(Cc3ccco3)c2ncn1CCN1CCOCC1 | -1%
CC1CCN(CCCNC(=O)c2n[nH]c(=O)c3ccccc23)CC1 | -4%
O=C(Nc1cccc(C(=O)N2CCOCC2)c1)c1ncn[nH]1 | 8%
O=C(O)COc1ccc(-c2nnn(Cc3ccccc3F)n2)cc1 | 9%
O=C(Nc1ccccc1)NC1(C(=O)NCc2ccco2)CCCCC1 | 9%
O=C1NC(=S)S/C1=C1\Sc2ccccc2N1CCCS(=O)(=O)O | ?
CCn1nnnc1SCC(=O)N1CCOCC1 | 8%
O=C(O)/C(Cc1cn[nH]n1)=N\O | 2%[11.4 µM]
O=C(CCc1ccccc1)Nc1nc2ccc(S(=O)(=O)N3CCOCC3)cc2s1 | -14%
COc1ccc(CCNC(=O)CCNS(=O)(=O)c2ccc3c(c2)CCN3C(C)=O)cc1OC | -6%
Nc1nc(-c2cccnc2)cc(-c2cc(-c3cccnc3)nc(N)n2)n1 | -2%[11.4 µM]
Cc1cc(C2(c3cc(C)c(O)c(C(=O)O)c3)OS(=O)(=O)c3ccccc32)cc(C(=O)O)c1O | 16%[11.4 µM]
COc1ccccc1NC(=O)CN1CCCCC1 | 8%
Oc1ccc2ccccc2c1C=NCc1c(O)ccc2ccccc12 | -5%[11.4 µM]
CCOC(=O)C1CCN(C(=O)CN(C)S(=O)(=O)c2cc(C)ccc2OC)CC1 | -2%
CC(=O)O[C@]1(C)CC[C@]23CC1C(C)(C)C2CC[C@@H]3C (stereo partly drawn) | -9%
Cc1cc2c(cc(C(=O)N3CCC(C(=O)NC4CCCC4)CC3)n2Cc2c(F)cccc2Cl)o1 | 5%
COC(=O)CSc1nc2cc(Cl)ccc2c(=O)n1C1CCCC1 | -4%
Cn1nc(-c2ccc(N3CCOCC3)c(NS(=O)(=O)c3ccccc3)c2)c2ccccc2c1=O | 4%
CC(=O)Nc1ccc(S(=O)(=O)N(C)c2ccc(O)cc2)cc1 | 2%
O=C(O)CCCC[C@H]1SC[C@H]2NC(=O)N[C@@H]21 | -2%[25.6 µM]

(listing goes on)
SMILES | HSD17B inhib
COc1ccc(NC2=NCCC(=O)N2Cc2cccs2)cc1 | -6%
COc1ccccc1CNC(=O)COC(=O)c1ccc(NC(N)=O)cc1 | -1%
COc1ccc(-c2csc(NC(=O)C3CCCO3)n2)cc1 (stereo not drawn) | 10%
Cc1ccc(C(C)NC(=O)c2cc(C)oc2C)cc1 (stereo not drawn) | -2%
COc1ccc(CNC(=O)CSc2nnc(-c3ccc(NC(C)=O)cc3)n2C)cc1 | 6%
CC(=O)N1CCc2cc(S(=O)(=O)CCC(=O)N3CCN(C(=O)c4ccco4)CC3)ccc21 | 1%
COc1ccc(-c2noc(COc3ccccc3OC)n2)cc1OC | -14%
CCN1CCN(CCNC(=O)c2ccc(CS(=O)(=O)c3c(Cl)cccc3Cl)o2)CC1 | 9%
COC(=O)C1C(c2ccccc2)C(C(=O)N2CCN(C)CC2)C1c1ccccc1 (stereo not drawn) | 9%
C=CCN1C(=O)C2C(C(=O)NC)C3(C)C=CC2(O3)C1C(=O)NCc1ccc(OC)cc1 (stereo not drawn) | 15%
OCc1nc2ccccc2n1CCCOc1ccccc1 | 0%
COc1ccc(CNC(=O)C(c2ccco2)N(Cc2cccs2)C(=O)Cc2cccs2)cc1 (stereo not drawn) | -6%
COCCn1c(-c2ccc(OC)cc2)cnc1SCC(=O)Nc1cc(C)on1 | 1%
Cc1ccc(-c2nn3c(C)nnc3s2)cc1NC(=O)c1ccc(Br)o1 | 1%
Cc1nc2nc(COc3ccccc3)nn2c(C)c1Cl | -1%
COC(=O)c1cc2oc(C)cc2n1CC(=O)N1CCCc2ccccc21 | -18%
CCn1nc(C(=O)OCC(=O)N2c3ccccc3CC2C)c2ccccc2c1=O (stereo not drawn) | 3%
Cc1onc(-c2c(F)cccc2Cl)c1C(=O)NCc1ccccn1 | -7%
Cc1cc(CN2C(=O)c3ccccc3C2=O)on1 | 9%
CCC/C(O)=C1\C(=O)CC(C)(C)CC1=Nc1ccc(OC)cc1OC | 3%

Compound activity (PubChem BioAssay)
